GALR2 agonist: GALR2 (human) receptor agonism | O43603 | GALR2-expressing cells, agonist activation read-out | activation, %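 (tested at 5 µM)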 | 140,000 compounds, 0.48% hits | AID 803;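 active = above mean plus 3 SD of all compounds, about 5% in these data, not always enough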;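 note: 0% = vehicle buffer wells and 100% = reference agonist at full effect; tested in CHO reporter cells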
Target sequence (O43603 whole entry, looked up): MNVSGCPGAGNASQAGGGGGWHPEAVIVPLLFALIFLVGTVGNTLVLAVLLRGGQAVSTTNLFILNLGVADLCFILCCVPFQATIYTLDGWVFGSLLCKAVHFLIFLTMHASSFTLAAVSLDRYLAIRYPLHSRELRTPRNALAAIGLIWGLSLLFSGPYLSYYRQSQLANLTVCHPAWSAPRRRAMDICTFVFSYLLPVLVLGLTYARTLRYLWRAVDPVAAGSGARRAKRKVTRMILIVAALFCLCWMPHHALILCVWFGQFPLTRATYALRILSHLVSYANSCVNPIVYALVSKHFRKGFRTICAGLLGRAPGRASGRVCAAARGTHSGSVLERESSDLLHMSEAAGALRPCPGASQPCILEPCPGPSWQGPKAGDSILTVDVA
RGS16-Gao HTS: modulates binding between human RGS16 and Galphao | bead-based flow cytometry RGS16-Galphao binding, fluorescence; actives lie on both sides | O15492+P09471 | 220,000 compounds, 0.38% hits | AID 1441 | binding response (% of control), % at 10 µM;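 active = below 25% or above 175%, edge rows of some plates excepted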;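 note: Galphao activated by GDP with aluminum fluoride before binding; 100% = wells without compound and 0% = beads without RGS; some results beyond the cut were filed as inactive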
Target sequence (O15492 whole entry, looked up): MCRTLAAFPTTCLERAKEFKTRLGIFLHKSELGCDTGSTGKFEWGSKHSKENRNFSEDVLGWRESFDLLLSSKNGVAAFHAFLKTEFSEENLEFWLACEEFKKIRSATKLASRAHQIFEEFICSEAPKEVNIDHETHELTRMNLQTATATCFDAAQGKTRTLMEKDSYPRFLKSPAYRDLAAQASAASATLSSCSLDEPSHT
Target sequence (P09471 whole entry, looked up): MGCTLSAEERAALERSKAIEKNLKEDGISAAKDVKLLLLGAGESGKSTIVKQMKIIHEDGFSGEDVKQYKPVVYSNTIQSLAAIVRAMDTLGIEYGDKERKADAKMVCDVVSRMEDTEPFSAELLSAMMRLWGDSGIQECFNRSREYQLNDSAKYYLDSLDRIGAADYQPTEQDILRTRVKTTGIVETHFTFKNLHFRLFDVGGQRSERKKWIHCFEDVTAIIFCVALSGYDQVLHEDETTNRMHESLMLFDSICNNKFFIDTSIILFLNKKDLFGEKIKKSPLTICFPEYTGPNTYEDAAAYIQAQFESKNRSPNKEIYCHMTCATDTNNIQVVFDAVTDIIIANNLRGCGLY
PKD1 kinase inh: inhibitors of human PKD1 kinase. Q15139. PKD1 kinase fluorescence polarization assay. inhibition, %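 (about 10 µM by stock and volumes)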. 200,000 compounds, 0.056% hits;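 active = inhibition of 50% or more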;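 note: controls were vehicle for no effect and a reference inhibitor for full effect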
Insulin prom inh: TRM-6 insulin promoter activity inhibition; TRM-6 cells (human fetal islet line), insulin promoter-eGFP reporter, imaging; reporter expression induced with tamoxifen; inhibition, % at 2 µM; 130,000 compounds, 0.9% hits;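 active = inhibition above the mean plus 3 SD, with well images judged a real hit on visual review, cut at about 60% in these data, passing the limit was not always enough; inconclusive = inhibition over the cutoff but images rejected on review; inactive = inhibition not above the cutoff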
HSV replic up: HSV replication enhancement; AID 1956; 220,000 compounds, 0.005% hits; maximum fold increase; HSV replication augmentation in cells, fold increase;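 active = peak rise of 1.5-fold or more in the series; inconclusive = self-fluorescent or not available for retest; tested in PC3 cells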;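 note: first round at 10 µM; read as green reporter fluorescence; hits show the peak of a series up to 25 µM; 1 = signal of infected wells without compound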
Insulin prom inh cell count: also measured in Insulin prom inh; calls as there; normalized cell count, %; measured here: cell count, toxicity; reference of the scale not given here;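 cells exposed to compound for 48 h; stained nuclei by imaging scaled within each plate; lower means fewer cells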
HSV replic up primary fold: recorded beside HSV replic up, whose call it bears; fold increase; compound at 10 µM; measured here: primary screen fold increase 10 uM; tested in PC3 cells;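 GFP signal in the first replicate; 1 = infected wells without compound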
* marks the source's active call; other numbers are inactive results; i = inactive; ? = inconclusive; . = no result given.

molecule	Insulin prom inh	HSV replic up primary fold	RGS16-Gao HTS	GALR2 agonist	PKD1 kinase inh	Insulin prom inh cell count	HSV replic up
N#C/C(=C\c1cccs1)C(=O)c1ccccc1Cl	.	0.91	91.8	.	.	.	i
CC(=O)Nc1cc(NC(C)=O)c(N=Nc2ccccc2)cc1C	.	0.96	121.5	.	.	.	i
O=C(NN1C(=O)/C(=C/c2cccnc2)SC1=S)C(c1ccccc1)c1ccccc1	.	1.11	101.2	-1.6	-3.4	.	i
CC(C)Cc1ccc(/C=C/C(=O)N2CCCCC2)cc1	2.6	0.94	102.4	.	4.1	106.0	i
CN(c1ccc(F)cc1)S(=O)(=O)c1ccc(Cl)c(C(=O)OCC(=O)NCc2ccco2)c1	-63.6	1.06	98.7	.	1.3	72.3	i
S=c1oc(-c2ccncc2)nn1CCc1ccncc1	-18.2	1.01	93.5	-4.5	-2.1	159.3	i
CCNC(=O)NC(C(=O)OC)C12CC3CC(CC(C3)C1)C2 (centres undefined)	37.9	0.917	97.7	-3.1	-0.5	111.6	i
Oc1ccc(CN2CCCCC2)c2cccnc12	-388.9	0.76	63.4	0.1	-2.1	12.6	i
Cc1cc(C(=O)OCC(=O)NC(C)C)c2ccccc2n1	.	0.96	96.5	.	.	.	i
C/C(Cl)=C\CNC(C)c1ccccc1 (centres undefined)	-7.1	1	93.1	-2.5	-11.6	88.9	i
COc1ccc(C2NC(=S)NC(C)=C2C(=O)N2CCOCC2)cc1 (centres undefined)	5.6	0.93	91.3	.	5.5	120.8	i
CNC(=S)NNC(=O)c1ccccc1Cl	.	0.87	107.8	.	.	.	i
O=C1NC(=O)/C(=C\c2ccccc2OCc2ccccc2)S1	.	0.86	102.0	.	-2.4	.	i
Cc1nc(-c2ccccc2)sc1C(=O)CSc1ccc(F)cc1	3.3	0.99	105.3	-3.2	-0.7	131.3	i
Cc1cccc(N=C/C(C(=O)C(F)(F)F)=C(\O)c2ccco2)c1	.	1.29	97.0	0.3	8.4	.	i
Fc1ccc(-c2cnc(-c3cccs3)o2)cc1	8.3	0.96	107.2	-0.7	-10.6	104.8	i
Cc1cc(C(=O)COC(=O)CCCN2C(=O)c3ccccc3C2=O)c(C)n1C	.	0.86	81.0	-0.2	-9.4	.	i
Cc1ccc(-n2c(SCC(N)=O)nc3c(c2=O)C2(CCCC2)Cc2ccccc2-3)cc1	-13.3	0.93	90.0	1.9	-9.9	112.5	i
CCCNC(=O)NS(=O)(=O)c1cnccc1Sc1ccc(Cl)cc1	39.5	0.95	97.4	-1.2	-12.3	85.7	i
CC(Oc1ccccc1)c1nnc(N)s1 (centres undefined)	.	1.06	103.8	.	-4.9	.	i
O=C(Nc1ccc(F)cc1)C(c1ccccc1)N1CCN(S(=O)(=O)c2c(F)cccc2F)CC1 (centres undefined)	13.3	0.97	101.8	-1.1	1.4	98.3	i
COc1ccc(NC(=O)Cc2ccc(Cl)cc2)cc1NC(=O)c1ccco1	3.5	0.64	103.0	-1.2	-0.4	90.7	i
COc1ccc(OCC(=O)O/N=C(\N)Cc2cccs2)cc1	-5.6	1	100.3	-0.8	7.2	144.0	i
COc1ccc(N2CCN(C(C)=C3C(=O)c4ccccc4C3=O)CC2)cc1	-100.0	1.05	101.0	.	0.4	103.8	i
Oc1ccc(-c2csc(Nc3ncccn3)n2)cc1O	.	0.76	94.3	.	-4.4	.	i
COc1ccc(Nc2nnc(Cc3ccc(Cl)cc3)c(=O)[nH]2)c(OC)c1	.	0.88	101.0	-1.3	11.0	.	i
O=C(NCc1ccccc1)NC1(C(=O)N2CCN(c3ccccc3)CC2)CCCCC1	.	1.02	97.8	1.2	-4.2	.	i
CCOC(=O)c1ccccc1NC(=O)C1COc2ccccc2O1 (centres undefined)	.	0.97	103.7	0.6	-2.0	.	i
CCOC(=O)C(=CNc1ccccc1C)C(=O)OCC	-11.1	0.83	123.4	-2.9	-7.7	92.4	i
CCCCNC(=S)NNC(=O)c1ccc(Br)o1	7.1	0.93	96.6	-1.9	0.0	131.3	i

The list goes on:
molecule	Insulin prom inh	HSV replic up primary fold	RGS16-Gao HTS	GALR2 agonist	PKD1 kinase inh	Insulin prom inh cell count	HSV replic up
CC(C)CC(=O)Nc1ccnc(-c2ccncc2)n1	.	0.93	99.2	.	-1.3	.	i
O=C(CSc1nnc2c(n1)[nH]c1ccccc12)OCc1ccccc1	2.3	0.96	98.9	0.1	7.0	114.1	i
COc1ccc(OCc2nnnn2-c2ccccc2)cc1	0.0	1.05	107.4	-0.5	-10.2	86.0	i
CC(C(=O)O)n1ncc2ccccc2c1=O (centres undefined)	.	1.11	96.1	.	.	.	i
Cc1ccc(NC(=O)C2CC(=O)Nc3nc4ccccc4n32)c(C)c1 (centres undefined)	.	0.89	100.8	.	.	.	i
CCn1ncc([C@@H]2C[C@H]3CN(Cc4cccc(Cl)c4)C(=O)[C@]34CCCN24)c1C	.	1.25	103.5	.	-1.1	.	i
Cc1ccccc1NC(=O)C(=O)NCCc1c[nH]c2ccccc12	.	0.93	117.0	.	-3.5	.	i
CCOC(=O)c1c(C)oc2c1c(CN1CCN(C(=O)OCC)CC1)c(O)c1ccccc12	-10.3	1.12	98.5	-1.5	-4.0	116.3	i
C/C(=N/NC(=O)CNC(=O)Cc1ccc(Cl)cc1)c1ccco1	.	1.11	97.5	.	.	.	i
Cc1ccc(S(=O)(=O)N2CCN(Cc3nc4sc(C)c(C)c4c(=O)[nH]3)CC2)cc1	3.1	0.68	101.9	0.1	-0.1	148.8	i
COC(=O)C1=C(C)N(C2CCCC2)C(=O)C1(NC(C)=O)C(F)(F)F (centres undefined)	25.0	0.85	97.1	-0.6	-10.6	92.9	i
O=C1CCCC2=C1C(c1ccccc1O)C1=C(CCCC1=O)O2	45.5	0.973	258.7	-3.1	-11.3	115.8	i
Cc1ccc(NC(=O)C(OC(=O)c2cc(C)oc2C)c2ccccc2)cc1 (centres undefined)	.	0.98	104.1	-0.6	2.4	.	i
COc1ccc(CN2C(=O)c3ccccc3C2C(=O)NCCc2ccccc2)c(OC)c1 (centres undefined)	-89.2	1.05	101.8	.	-6.6	138.0	i
CCN(CC)S(=O)(=O)c1cccc(NC(=O)COC(=O)c2cc(C)oc2C)c1	-18.9	1.02	102.7	-1.0	0.3	67.4	i
Cc1ccccc1NC(=O)N1CCC(C(=O)c2ccc(F)cc2)CC1	7.1	0.95	104.8	.	-3.9	65.3	i
O=C(Cn1c(NCCO)nc2ccccc21)c1ccco1	-43.8	1.03	104.9	-2.1	-4.1	90.1	i
Cc1ccc(C)c(NC(=S)NC2CC3CCCC(C2)N3CC(C)C)c1 (centres undefined)	-9.7	0.88	64.6	-2.5	-14.9	140.0	i
CC(C)n1c(-c2ccc(N(C)C)cc2)nc2ccccc21	-19.4	0.98	97.6	-2.4	-1.4	110.3	i
CC(C)CCNC(=O)CCCn1c(=O)[nH]c2ccc(Br)cc2c1=O	.	0.92	100.1	-1.8	0.4	.	i
Fc1ccc(Oc2nc(-c3ccccn3)nc3ccccc23)cc1	.	0.68	101.8	.	.	.	i
CCOc1cc2c(cc1C(C)(C)C)NC(=O)CS2	-188.4	0.81	96.0	-0.3	-2.4	79.9	i
c1ccc(CSc2nnc(-c3ccco3)o2)cc1	.	1.07	104.0	.	.	.	i
O=C(O/N=C\c1ccc(N2CCOCC2)c([N+](=O)[O-])c1)c1ccccc1Cl	.	.	100.6	-1.6	3.6	.	.
CCS(=O)(=O)N1CCC(C(=O)NCCCN2CCC(Cc3ccccc3)CC2)CC1	.	.	161.3	-2.5	-6.9	.	.
COC(=O)c1ccccc1NC(=O)Cn1cc(Br)cn1	.	0.94	103.3	0.1	3.4	.	i
COc1ccc(N2C(=O)CC(NNc3ncc(Cl)cc3Cl)C2=O)cc1 (centres undefined)	-40.0	1.01	98.8	.	-5.2	78.9	i
Cc1c(Cl)c(C(F)(F)F)nn1CC(=O)NCc1ccccc1	-48.6	1.1	102.3	-1.3	-4.6	107.8	i
O=c1cc(N2CCC3(CC2)OCCO3)[nH]c(=O)n1-c1ccc(Br)cc1	18.8	1.21	101.1	-1.9	-1.1	146.9	i
CN(C)C(=S)SCC(=O)Nc1cccc(C(F)(F)F)c1	0.0	0.94	108.0	-0.4	-6.8	89.0	i

Quoted at random: three records from the list, in no set order.
molecule	Insulin prom inh	HSV replic up primary fold	RGS16-Gao HTS	GALR2 agonist	PKD1 kinase inh	Insulin prom inh cell count	HSV replic up
CN(C)C(=S)SCC(=O)Nc1cccc(C(F)(F)F)c1	0.0	0.94	108.0	-0.4	-6.8	89.0	i
CC(C)CCNC(=O)CCCn1c(=O)[nH]c2ccc(Br)cc2c1=O	.	0.92	100.1	-1.8	0.4	.	i
COC(=O)c1ccccc1NC(=O)Cn1cc(Br)cn1	.	0.94	103.3	0.1	3.4	.	i

Later entries.
molecule	Insulin prom inh	HSV replic up primary fold	RGS16-Gao HTS	GALR2 agonist	PKD1 kinase inh	Insulin prom inh cell count	HSV replic up
CCC12CC3CC(C1)CC(C(=O)NNC(N)=O)(C3)C2	.	1.02	103.9	.	.	.	i
Cc1cccnc1N(C(=O)Nc1cccc(Cl)c1)C1=NCC(C)(C)S1	7.1	0.97	104.2	-0.8	-7.6	100.0	i
O=C(CSc1ccccn1)Nc1ccc(N2CCOCC2)cc1	21.4	.	101.7	.	-1.1	85.1	.
COc1ccc(C2C(C#N)=C(N)N(c3ncn[nH]3)C3=C2C(=O)CCC3)cc1 (centres undefined)	15.4	1.07	104.3	.	0.4	131.5	i
Cc1cc(=O)[nH]c(SCC(=O)Nc2cccc(C(F)(F)F)c2)n1	-492.9	0.92	98.2	-0.8	-2.6	61.1	i
CCN(CC)CCn1c2ccccc2c2nc(C)sc21	-14.3	.	101.0	-2.6	2.6	91.5	.
C=CCOc1ccc(/C=N/NC(=O)CN2CCOCC2)cc1OCC	.	1.05	108.7	.	3.2	.	i
Cc1cc(C)nc(/N=C(\N)Nc2cccc(OCc3ccccc3)c2)n1	.	0.68	106.7	.	.	.	i
Cc1ccc(S(=O)(=O)NC(=O)NCc2ccccn2)cc1	5.7	0.93	102.8	-3.2	-12.0	106.0	i
O=C(Cn1c(NCCO)nc2ccccc21)NCCc1ccc(F)cc1	-26.5	1.01	112.2	-2.2	-7.2	48.0	i
FC(F)(F)c1cccnc1Oc1ccc(C2=NCCS2)cc1	.	0.88	105.5	.	.	.	i
O=C(N/N=C/c1cn[nH]c1-c1ccc(Cl)cc1)c1ccc([N+](=O)[O-])cc1	.	1.01	106.3	.	-3.9	.	i
CC(C)N(C(=S)Nc1cccc(S(=O)(=O)N(C)C)c1)c1ccccc1	.	1.12	104.5	.	.	.	i
Cc1nn(-c2ccccc2)c2nc3c(cc12)C(=O)CCC3	.	0.94	89.7	-0.6	-1.2	.	i
CCCCOc1ccc(-c2nc(-c3cccnc3)no2)cc1	19.4	0.93	107.0	-1.4	5.5	123.1	i
CSc1nc(C=Nc2ccccc2Cl)c(O)n1Cc1cccc(Cl)c1	.	1.14	105.7	.	.	.	i
CN1CCN(C(=O)C2=C[C@@H](c3ccc(Br)cc3)C[C@@H](OCc3ccc(CO)cc3)O2)CC1	.	0.99	100.5	.	-0.4	.	i
Cc1ccc(Cn2c(O)c(N=NC(=S)Nc3ccccc3F)c3cc(S(=O)(=O)N4CCOCC4)ccc32)cc1	.	0.93	103.2	.	-2.6	.	i
CCN(C(=O)COC(=O)c1cc2ccccc2cc1O)C1CCS(=O)(=O)C1 (centres undefined)	-23.7	.	99.7	0.2	-6.9	107.1	?
COc1ccc(C(=O)NCc2cccnc2)cc1S(=O)(=O)N1CCOCC1	5.0	0.75	79.4	-2.5	1.0	55.3	i
O=C(Cn1c(=S)[nH]c2ccccc21)c1ccccc1	-3.2	1.08	107.5	-1.0	-5.2	94.6	i
CCOc1ccc(C(=O)NCCN2CCOCC2)cc1	.	1.04	103.2	.	-6.7	.	i
Cc1ccc(N2C(=O)c3oc4ccccc4c(=O)c3C2c2cccc(O)c2)nc1 (centres undefined)	.	1	.	0.8	-16.0	.	i
O=c1[nH]c2ccc(Br)cc2c(-c2ccccc2)c1N1CCOCC1	.	.	104.8	-1.2	-13.7	.	.

High-throughput results deposited in PubChem BioAssay by several laboratories.

Not a hit list; overall some 1.3% were active at least once.
